Screens from PubChem.
Mtb betalactam – beta-lactam sensitization of Mtb H37Rv, H37Rv; inhibition, % at 25 µM; actives 0.27% (n = 330,000); M. tuberculosis H37Rv growth with meropenem, percent inhibition; hits of this screen are not shown here;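 active = about 74% or more and at least 40 points above the plate without the antibiotic, then above 30% in a dose series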;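 also: growth measured after seven days incubation then overnight dye step; 0% = bacteria only wells and 100% = bacteria with antibiotic; twin plates without the antibiotic show which effects depend on it; some results filed as inactive read as strong as hits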
Arbovirus anti – antivirals against arbovirus infection, primary screen, cell-based, full library, 10K replicate subset | actives 0.37% (n = 200,000) | AID 1251, 2008 | arbovirus infection cell-based antiviral screen | inhibition, % at 10 µM;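 active = inhibition from about 30%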;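 also: bluetongue infection of BSR cells; cell survival read as ATP light after 72 h; 0% = infected wells without compound and 100% = uninfected wells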
YopH PTP inh – YopH tyrosine phosphatase inhibitors, primary screen, biochemical, fluorescence Ex485/Em525; inhibition, %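 (about 10 µM by stock and volumes)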; actives 0.16% (n = 140,000); AID 898, 2007;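 active = inhibition of 50% or more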;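 also: controls were vehicle for no effect and minimum signal wells for full effect; inactives centre near -20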
Mtb H37Rv – M. tuberculosis H37Rv growth inhibitors, H37Rv strain (AID 1626); M. tuberculosis H37Rv growth inhibition; higher % means a stronger effect; actives 0.95% (n = 220,000); inhibition, % at 10 µM, or IC50 in µM where a hit was titrated;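 active = confirmed in a dose series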;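 also: bacteria incubated seven days before Alamar blue readout; 0% = bacteria only wells and 100% = bacteria with antibiotic wells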
RecA splice inh – Mtb RecA intein splicing inhibitors, primary screen, biochemical, fluorescence, HTS. Protein RecA (Mycobacterium tuberculosis (strain ATCC 25618 / H37Rv)), P9WHJ3. cell-free RecA intein splicing. inhibition, %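 (about 9 µM by stock and volumes)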. actives 0.75% (n = 290,000). AID 2221, 2009; in the data active = inhibition above about 30%;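 also: 0% = vehicle wells and 100% = reference inhibitor control wells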
Target sequence (P9WHJ3 whole entry, looked up, canonical isoform): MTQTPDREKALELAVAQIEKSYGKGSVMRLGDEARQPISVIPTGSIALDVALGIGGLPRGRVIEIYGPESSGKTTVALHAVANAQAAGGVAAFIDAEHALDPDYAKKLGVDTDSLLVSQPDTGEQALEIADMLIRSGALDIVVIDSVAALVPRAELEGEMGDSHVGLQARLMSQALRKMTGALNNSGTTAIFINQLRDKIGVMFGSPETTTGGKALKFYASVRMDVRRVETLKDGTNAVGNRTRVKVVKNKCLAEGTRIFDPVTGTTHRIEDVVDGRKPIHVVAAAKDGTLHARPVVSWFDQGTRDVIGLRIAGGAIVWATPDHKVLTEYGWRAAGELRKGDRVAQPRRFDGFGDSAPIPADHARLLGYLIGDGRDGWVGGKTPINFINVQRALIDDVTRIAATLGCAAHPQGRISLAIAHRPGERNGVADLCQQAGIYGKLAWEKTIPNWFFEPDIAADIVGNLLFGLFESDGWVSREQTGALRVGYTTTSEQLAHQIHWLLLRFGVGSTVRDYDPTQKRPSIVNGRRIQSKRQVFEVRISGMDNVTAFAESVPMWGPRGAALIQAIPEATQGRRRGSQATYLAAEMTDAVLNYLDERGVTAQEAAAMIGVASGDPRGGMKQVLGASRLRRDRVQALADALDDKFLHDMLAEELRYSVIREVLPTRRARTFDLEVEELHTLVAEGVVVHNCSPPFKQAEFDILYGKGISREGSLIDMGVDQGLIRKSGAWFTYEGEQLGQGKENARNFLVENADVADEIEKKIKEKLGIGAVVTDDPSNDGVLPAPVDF
* marks the source's active call; other numbers are inactive results. Only part of the results is shown (hit frequency here may not be typical).

`COc1ccccc1C(=O)N/C(=C\c1cn(S(=O)(=O)N(C)C)c2ccccc12)C(=O)NCCCN1CCOCC1` gave Mtb betalactam -3 and RecA splice inh 1.0.
For COc1ccc(S(=O)(=O)N(Cc2cccs2)C2CCCC2)cc1 the results were Mtb betalactam -5, Arbovirus anti -9, YopH PTP inh -18, Mtb H37Rv -5% and RecA splice inh 6.8.
Screening Cc1cc(C)cc(N(CC(=O)N2CCCCCC2)S(C)(=O)=O)c1 returned Mtb betalactam -5 and RecA splice inh 0.8.
For O=C(CCN1C(=O)/C(=C/c2ccc(Cl)cc2)SC1=S)NCCCn1ccnc1 the results were Mtb betalactam -6 and RecA splice inh 5.9.
`CCC(=O)NC(c1cccs1)c1ccc2cccnc2c1O` (configuration not stated) gave Mtb betalactam 6, Arbovirus anti -24, Mtb H37Rv -13% and RecA splice inh -3.3.
`Cc1cccc2c(=O)c(Br)c(C)n(Cc3ccccc3)c12` gave Mtb betalactam -2, Arbovirus anti 4, Mtb H37Rv 4% and RecA splice inh -4.4.
CCC1=NN(C(=O)Cc2ccc([N+](=O)[O-])cc2)C(O)(c2ccncc2)C1 (configuration not stated) was read as Mtb betalactam 4, Arbovirus anti 16, Mtb H37Rv -5% and RecA splice inh -2.0.
For Cc1ccc(C2C3C(=O)N(c4ccccc4)C(=O)C3N3CCCN23)cc1 (configuration not stated) the results were Mtb betalactam -2, Mtb H37Rv -6% and RecA splice inh -3.2.
Screening Cc1ccc(-n2cccn2)cc1 returned Mtb betalactam -1, Arbovirus anti 10, Mtb H37Rv -6% and RecA splice inh -1.7.
Screening Cc1c(Cl)cccc1NC(=O)c1cccc(NC(=O)CCC(=O)O)c1 returned Mtb betalactam -2, Arbovirus anti 0, YopH PTP inh -15, Mtb H37Rv 1% and RecA splice inh 2.1.
COC(=O)[C@H](CC(C)C)NC(=O)Nc1ccccc1F was read as Mtb betalactam -2, Mtb H37Rv -6% and RecA splice inh -0.4.
Screening C/C=C/C=C\C(=O)Nc1cccc(C2=NOC3(C2)C[C@H](C(N)=O)N(C(=O)CC#N)C3)c1 (some centres not stated) returned Mtb betalactam -6, Mtb H37Rv -6% and RecA splice inh 0.2.

The closing two entries of the part before are carried over, then new ones follow:
COC(=O)[C@H](CC(C)C)NC(=O)Nc1ccccc1F was read as Mtb betalactam -2, Mtb H37Rv -6% and RecA splice inh -0.4.
Screening C/C=C/C=C\C(=O)Nc1cccc(C2=NOC3(C2)C[C@H](C(N)=O)N(C(=O)CC#N)C3)c1 (some centres not stated) returned Mtb betalactam -6, Mtb H37Rv -6% and RecA splice inh 0.2.
Cc1ccc(NC(=O)CSc2nc(=O)n3cc(C)ccc3n2)c(C)c1 was read as Mtb betalactam 2 and RecA splice inh -2.9.
CCCCn1c(N)c(C(=S)NC(=O)CC(C)(C)C)c(=O)n(C)c1=O was read as Mtb betalactam 61, Arbovirus anti -21, YopH PTP inh -41, Mtb H37Rv -11% and RecA splice inh 4.5.
CC(=O)N1CCN(S(=O)(=O)c2cccc(C(=O)Nc3ccc4c(c3)CCC4)c2)CC1 was read as Mtb betalactam 6, Arbovirus anti 0, YopH PTP inh 17, Mtb H37Rv 1% and RecA splice inh 0.6.
COc1ccccc1/C=c1\sc2nc(-c3ccccc3OC)nn2c1=O was read as Mtb betalactam 10, Arbovirus anti 6 and YopH PTP inh -6.
COc1ccc(/C=C(\NC(=O)c2ccc(C)cc2)C(=O)Nc2c(C)n(C)n(-c3ccccc3)c2=O)cc1 was read as Mtb betalactam 2, Arbovirus anti 21, Mtb H37Rv -2% and RecA splice inh -0.3.
`CCOc1ccc(C(=O)NCC(=O)N2CCc3ccccc3C2)cc1OCC` gave Mtb betalactam 8, Arbovirus anti -3, Mtb H37Rv 4% and RecA splice inh -1.7.
Screening COc1ccc(C(=O)Nn2cc3c(c2-c2ccccc2)c(=O)n(C)c(=O)n3C)cc1 returned Mtb betalactam -2, Arbovirus anti -5, YopH PTP inh -33, Mtb H37Rv -2% and RecA splice inh 0.9.
For O=C(CSc1ccccn1)N/N=C/c1c[nH]c2ccccc12 the results were Mtb betalactam 5, Arbovirus anti 8, Mtb H37Rv 2% and RecA splice inh -1.7.
`Cc1ccc(Cl)cc1N1CCN(C(=O)Cn2ncn3cccc3c2=O)CC1` gave Mtb betalactam -1 and RecA splice inh -0.4.
For Cc1cc(NC(=O)c2ccc([N+](=O)[O-])cc2Cl)no1 the results were Mtb betalactam 4 and RecA splice inh -1.9.
Cc1cc(OCC(=O)NCC2CCC(C(=O)O)CC2)c2c3c(c(=O)oc2c1)CCC3 (configuration not stated) was read as Mtb betalactam -5 and RecA splice inh -2.4.
Screening Cc1ccc(C(CC(=O)N2CCCC2)c2ccccc2)c(O)c1 (configuration not stated) returned Mtb betalactam 0 and RecA splice inh 4.2.
Cc1cccc(/C(N)=N/OC(=O)CCc2ccccc2)c1 was read as Mtb betalactam -6, Arbovirus anti -9, YopH PTP inh -25 and Mtb H37Rv -1%.
CCCC[C@@H]1CNC(=S)N1CCc1cccc(F)c1 was read as Mtb betalactam -5, Arbovirus anti 17, Mtb H37Rv -8% and RecA splice inh 0.3.
`N/C(=N\OC(=O)Cc1ccccc1)c1cccnc1` gave Mtb betalactam -4, Arbovirus anti -2, YopH PTP inh -35, Mtb H37Rv -10% and RecA splice inh 0.9.
`N#Cc1c(NC(=O)c2cc(-n3cnnc3)ccc2Cl)sc2c1CCCC2` gave Mtb betalactam 2, Arbovirus anti 16, YopH PTP inh -20, Mtb H37Rv 5% and RecA splice inh 1.3.
For Cn1c(SCc2ccc(Br)cc2)nnc1-c1cccs1 the results were Mtb betalactam 6, Arbovirus anti 0, YopH PTP inh -24, Mtb H37Rv 0% and RecA splice inh 3.1.
`Cc1cccn2cc(-c3cccc(NC(=O)c4cccs4)c3)nc12` gave Mtb betalactam 75, Arbovirus anti -16, Mtb H37Rv 3% and RecA splice inh 0.7.
CS(=O)(=O)N1CCN(C(=S)NCc2ccc(Cl)cc2)CC1 was read as Mtb betalactam 4, Arbovirus anti 2, Mtb H37Rv 5% and RecA splice inh 5.2.
CCOc1ccc(S(=O)(=O)NCCC(=O)NCC(c2ccccc2OC)N2CCCC2)cc1 (configuration not stated) was read as Mtb betalactam 9 and RecA splice inh -4.4.
For CCC(=O)N(CC(=O)Nc1sc(C)c(C)c1C(N)=O)C1CCCC1 the results were Mtb betalactam 2, Arbovirus anti 3, Mtb H37Rv 3% and RecA splice inh 0.2.
`Cc1cccc(OCCCC(=O)Nc2ccc(N3CCCCC3)cc2)c1` gave Mtb betalactam -9, Arbovirus anti 8, YopH PTP inh -18, Mtb H37Rv 3% and RecA splice inh -0.8.
Cc1ccc(NC(=O)COC(=O)CCNS(=O)(=O)c2ccc(C)c(C)c2)cc1 was read as Mtb betalactam 56, Arbovirus anti -1, YopH PTP inh -13, Mtb H37Rv 0% and RecA splice inh -4.0.
Screening CCCN1CNc2c(c(=O)[nH]c(=S)n2-c2ccccc2Cl)C1 returned Mtb betalactam -5, Arbovirus anti 8, Mtb H37Rv -7% and RecA splice inh -2.8.

Entries from the list above that have bromine (2):
`Cc1cccc2c(=O)c(Br)c(C)n(Cc3ccccc3)c12` gave Mtb betalactam -2, Arbovirus anti 4, Mtb H37Rv 4% and RecA splice inh -4.4.
For Cn1c(SCc2ccc(Br)cc2)nnc1-c1cccs1 the results were Mtb betalactam 6, Arbovirus anti 0, YopH PTP inh -24, Mtb H37Rv 0% and RecA splice inh 3.1.

The main list resumes, starting 2 compounds before the break.
Cc1ccc(NC(=O)COC(=O)CCNS(=O)(=O)c2ccc(C)c(C)c2)cc1 was read as Mtb betalactam 56, Arbovirus anti -1, YopH PTP inh -13, Mtb H37Rv 0% and RecA splice inh -4.0.
Screening CCCN1CNc2c(c(=O)[nH]c(=S)n2-c2ccccc2Cl)C1 returned Mtb betalactam -5, Arbovirus anti 8, Mtb H37Rv -7% and RecA splice inh -2.8.
Screening CCC(C)(C)NC(=O)C(c1ccc(F)cc1)N(Cc1ccccc1)C(=O)c1cnccn1 (configuration not stated) returned Mtb betalactam 0, Arbovirus anti 1, Mtb H37Rv 1% and RecA splice inh -1.5.
For COc1ccc(CC(=O)Nc2cc(NC(=O)Cc3ccc(OC)c(OC)c3)cc(C(=O)O)c2)cc1OC the results were Mtb betalactam 1, Arbovirus anti 4, Mtb H37Rv -5% and RecA splice inh 1.1.
Screening N#CCSc1nnc(-c2ccccc2O)n1Cc1ccccc1 returned Mtb betalactam 7, Arbovirus anti 3, YopH PTP inh -19, Mtb H37Rv 0% and RecA splice inh 2.4.
For O=C(NNC(=S)Nc1ccc(Cl)cc1Cl)c1ccc(N2CCOCC2)c([N+](=O)[O-])c1 the results were Mtb betalactam 7, Arbovirus anti 10, YopH PTP inh -14, Mtb H37Rv 9% and RecA splice inh 8.6.
`O=C(CN(C1CCCCC1)S(=O)(=O)c1ccc(Br)cc1)NCc1cccnc1` gave Mtb betalactam 7, Arbovirus anti 1, Mtb H37Rv 10% and RecA splice inh 3.1.
Screening CN(CC(=O)Nc1ccccc1Br)C(=O)c1cc([N+](=O)[O-])ccc1N1CCOCC1 returned Mtb betalactam -7 and RecA splice inh -0.3.
For O=C(O)CCCCn1c(SCc2cc(=O)n3cc(Cl)ccc3n2)nc2ccsc2c1=O the results were Mtb betalactam 10, Arbovirus anti 9, YopH PTP inh -18, Mtb H37Rv 1% and RecA splice inh 1.5.
For O=C(CCc1c[nH]c2ccccc12)NC(Cc1c[nH]c2ccccc12)C(=O)O (configuration not stated) the results were Mtb betalactam 0 and RecA splice inh -1.3.
`CC(C)CC1NC(=O)N(Cc2cc(=O)n3ccsc3n2)C1=O` (configuration not stated) gave Mtb betalactam -3, Arbovirus anti -7, Mtb H37Rv -6% and RecA splice inh 1.0.
`CN(C)c1ccnc(Oc2ccc(C(C)(C)C)cc2)c1C#N` gave Mtb betalactam 26, Arbovirus anti -1, YopH PTP inh -15 and Mtb H37Rv 1%.
For Cc1ccc(SCc2c(C(=O)N/N=C/c3cccnc3)nnn2-c2nonc2N)cc1 the results were Mtb betalactam 7 and RecA splice inh -1.1.
For Nc1cc(Cl)ccc1C(=O)OCC(=O)NC1CCS(=O)(=O)C1 (configuration not stated) the results were Mtb betalactam -6, Arbovirus anti -6, YopH PTP inh -12, Mtb H37Rv 2% and RecA splice inh -0.7.
For CN(C(=O)COC(=O)c1ccc(Cl)cc1N)C1CCCCC1 the results were Mtb betalactam -9, Arbovirus anti 5, Mtb H37Rv -4% and RecA splice inh -1.6.
`CC(C)NC(=O)C1CCN(C2CCN(C(=O)Cc3ccc4c(c3)OCO4)CC2)CC1` gave Mtb betalactam -8, Arbovirus anti -3 and Mtb H37Rv -2%.
`COc1ccc2nc(NC(=O)C34CC5CC(CC(NC(C)=O)(C5)C3)C4)sc2c1` gave Mtb betalactam 56 and RecA splice inh -0.4.
CC(C)(C)NC(=O)CSc1nncn1NCc1ccccc1 was read as Mtb betalactam 0, Arbovirus anti 6, YopH PTP inh -31, Mtb H37Rv -12% and RecA splice inh 1.4.
`CCOc1ccc(S(=O)(=O)Nc2cccc(C(=O)N(C)CC(=O)Nc3cccc(OC)c3)c2)cc1` gave Mtb betalactam -10 and RecA splice inh 7.3.
Screening CCNC(=S)NNC(=O)CC(C)C returned Mtb betalactam 0, Arbovirus anti 2, Mtb H37Rv -2% and RecA splice inh 1.2.
For CCOC(=O)c1ccc(N/C=C/C(=O)C(C)(C)C)cc1 the results were Mtb betalactam 95, Arbovirus anti -11, Mtb H37Rv 4.6µM* and RecA splice inh 0.8.
Cc1ccccc1C(=O)Nc1cccc(-c2ccc(N3CCOCC3)nn2)c1 was read as Mtb betalactam -11 and RecA splice inh 0.7.
Screening O=C(CN1CCCCC1)c1ccc2c(c1)OCO2 returned Mtb betalactam -10, Mtb H37Rv 1% and RecA splice inh -1.2.
O=C(NC1CCCCCC1)C(=O)NC1CC1 was read as Mtb betalactam 4 and RecA splice inh 1.8.
Screening COc1cc(CCCN2C(=S)NC[C@@H]2CCCCN)cc(OC)c1OC returned Mtb betalactam -8, Arbovirus anti 6, Mtb H37Rv -9% and RecA splice inh -1.2.
For CCOC(=O)c1cccnc1SCC(=O)N(CC)c1cccc(C)c1 the results were Mtb betalactam 2, Arbovirus anti -7, YopH PTP inh -12, Mtb H37Rv 2% and RecA splice inh 5.2.
`Cc1ccc(/C=C/C(=O)Nc2nn[nH]n2)o1` gave Mtb betalactam 2, Arbovirus anti 5, YopH PTP inh -29, Mtb H37Rv 7% and RecA splice inh -2.4.
`COCCNC(=O)/C(C#N)=C/C=C/c1ccccc1[N+](=O)[O-]` gave Mtb betalactam 4, Arbovirus anti -7, Mtb H37Rv 5% and RecA splice inh 12.
Cc1cc(=O)[nH]c2c3ccccc3nn12 was read as Mtb betalactam 2, Arbovirus anti 5, Mtb H37Rv -1% and RecA splice inh -4.9.
Screening Cc1cc(NC(=O)CSc2nc(-c3ccc(F)cc3)cs2)no1 returned Mtb betalactam 7, Arbovirus anti 1, YopH PTP inh -13, Mtb H37Rv 0% and RecA splice inh -5.2.
For CCC(C)CCCCNC1=NCCS1 (configuration not stated) the results were Mtb betalactam 7, Arbovirus anti 4, Mtb H37Rv 0% and RecA splice inh -0.5.
